# Screens (PubChem)
# PrP 5UTR inh: inhibition of PrP 5' UTR reporter expression; cell-based PrP 5' UTR mRNA reporter, plate reader; inhibition, % (concentration not given with the values); 340,000 compounds, 0.35% hits; AID 488862;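 active = every replicate at 50% or more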;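 also: 0 = median of the neutral control wells; tested in H4 reporter cells; numbers are from one replicate; inactives centre near -14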
# Mtb hypoxia inh: Mtb hypoxia fluorescent reporter inhibition. M. tuberculosis hypoxia-regulated fluorescent reporter, fluorescence. fluorescence inhibition, % (no concentration beside the values). 300,000 compounds, 0.1% hits;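 active = 35 to 45% if threefold the growth effect, above 45% if 1.5-fold the growth effect; inactive = the rest, general growth blockers included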;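 also: wells of about 50 µL received 100 nL stock; 0% = vehicle wells and 100% = reference inhibitor wells; whole bacteria with a GFP reporter of the hypoxia response; strong numbers were not always called active; many hits fall short of the cut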
# ugtP null kill: growth inhibition of S. aureus ugtP deletion strain; growth inhibition, % (test concentration not listed); AID 1259309; 330,000 compounds, 0.54% hits; S. aureus RN4220 ugtP deletion, OD600 growth, 16 h; some inactives read as strong as hits;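 active = z-score under -3 and OD600 up to 0.15 on both plates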;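 also: plate controls were untreated wells for no effect and antibiotic for full effect; wells of about 80 µL received 100 nL stock; the first replicate is given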
# BJeLR viability: BJeLR cell viability loss. BJeLR (HRASV12) viability, CellTiter-Glo ATP luminescence, 48 h; reference of the scale not given here. inhibition, % (test concentration not listed). 300,000 compounds, 0.17% hits. AID 1554;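 active = replicate mean above 50%; inconclusive = above 50% but judged a plate artefact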;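 also: 50 nL library stock added to about 25 µL; numbers are from one replicate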
# RN4220 kill: S. aureus RN4220 growth inhibition; OD600, 16 h; inhibition, % (concentration not given with the values); 330,000 compounds, 0.33% hits; AID 1259311;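 active = z-score of -3 or lower and OD600 up to 0.18 on both plates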;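 also: plate controls were untreated cells for no effect and reference antibiotic for full effect; stock transfer was 100 nL into about 80 µL; one replicate is shown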
# Autofluor counter: compound fluorescence in toxin protease inhibitor counterscreen. AID 624483. compound autofluorescence counterscreen, microsphere flow cytometry; hits give high values. fluorescence intensity (test concentration not listed). 360,000 compounds, 3.1% hits;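 active = at least 3 SD above the mean of all compounds, about 16000 in these data; inconclusive = too few beads counted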;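 also: 100 nL of 1 mM stock went into each well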
# Mtb hypoxia inh growth: second read-out of Mtb hypoxia inh, no call of its own (marks repeat the call); growth inhibition, %; measured here: M. tuberculosis growth (absorbance);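 0% = vehicle and 100% = reference antibiotic; read after six days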
# The depositor's hits bear a star; ? = inconclusive; . = no result given.
SMILES,PrP 5UTR inh,Mtb hypoxia inh,Mtb hypoxia inh growth,ugtP null kill,BJeLR viability,RN4220 kill,Autofluor counter
CCc1c(C)c2c(C)[nH]nc2oc1=O,1,17,-12,-4,-1,-12,.
CC(C)c1ccc(S(=O)(=O)N2CCN(C(=S)NCc3ccco3)CC2)cc1,-6,8,5,-2,1,1.4,2697
O=S(=O)(Cc1ccc(Cl)cc1)Oc1ccc(Cl)cc1,-27,3,-4,2,.,1.9,3888
C=C(C)C(=O)Nc1cccc(C2=NOC3(C2)C[C@H](C(N)=O)N(C(=O)c2ccccc2C(=O)c2ccccc2)C3)c1 (some centres not stated),-11,.,.,.,-1,.,4053
CC#CC(=O)N1CCC(C(=O)Nc2ccc(Oc3ccccc3)nc2)CC1,-39,5,6,6,-2,2.7,5668
CC(Cc1ccccc1)=NNC(=O)CNC(=O)c1ccc(Cl)cc1Cl,.,6,8,4,.,1.1,.
COC(=O)c1ccc(-n2c(C)nc(=O)c(-c3ccccc3)c2C)cc1,-22,1,10,-4,-6,-0.3,9074
CC(C)(C)c1cc(=O)n(-c2ccccc2)[nH]1,-9,-7,1,-16,.,5.6,2496
Cc1cc(C)nc(NN=Cc2ccc3c(c2)OCCO3)n1,.,9,11,9,.,1.0,.
COc1cc(CC(=O)NN=Cc2ccc([N+](=O)[O-])cc2)c([N+](=O)[O-])cc1OC,.,1,-5,-14,.,-2.2,.
COc1ccc(N(CC(=O)Nc2cccc3ccccc23)S(C)(=O)=O)cc1,4,-4,1,1,5,0.2,4028
CN1C2CCC1/C(=C/c1cccn1C)C(=O)/C2=C\c1cccn1C,-24,.,.,-3,7,-0.1,7871
O=C(NCc1ccco1)[C@@H]1CSC2c3ccccc3C(=O)N21 (some centres not stated),-23,.,.,-1,5,2.1,4731
COc1cccc(C(=O)N(C)C(C)c2nc3ccccc3s2)c1 (configuration not stated),-28,-8,9,-3,4,2.2,3754
COc1cc(C(=O)OCC(=O)N2c3ccccc3NC(=O)C2(C)C)ccc1OCC(C)C,-22,-1,-1,-7,16,1.6,4632
O=C(CN1C(=O)C2C3C=CC(C3)C2C1=O)Nc1ccc(S(=O)(=O)Nc2nccs2)cc1 (configuration not stated),-15,16,15,7,-5,2.4,4800
Cc1ccc(NC(=O)CN(C)Cc2ccc(Cl)cc2)cc1,-31,16,10,4,4,0.8,4253
COc1ccccc1C(=O)N/C(=C\c1ccccc1)C(=O)NC(Cc1ccccc1)C(=O)O (configuration not stated),-16,-15,-7,13,-10,3.2,4031
CCOc1ncccc1C(=O)OCC(=O)Nc1cccc(S(N)(=O)=O)c1,-23,4,12,-7,1,3.1,2552
Cc1sc2ncnc(OCC(=O)c3ccc(S(=O)(=O)N4CCCC4)cc3)c2c1C,-16,-8,2,-2,3,8.2,5854
COC(=O)C(Cc1ccccc1)NC(=O)C(N)CC(=O)OCc1ccccc1 (configuration not stated),.,19,6,7,.,5.8,.
O=C(COC(=O)CSc1ccc2ccccc2c1Br)NC1CC1,-9,10,0,-13,1,2.8,2718
NC(=O)CCC1NC(=S)N(Cc2ccccc2)C1=O (configuration not stated),-7,19,9,6,1,6.9,4263
CC/C(=N\NC(=O)CSCc1ccc(Cl)cc1)c1ccc2c(c1)OCCO2,11,.,.,.,-5,.,4442
CCOc1cc(/C=N/NC(=O)c2ccc(N(C)S(=O)(=O)c3ccccc3)cc2)ccc1OC,-50,.,.,.,5,.,5381
OC(C#CCCN1CCCCC1)(c1ccccc1)c1ccccc1,-7,-1,-2,4,0,0.7,4582
COc1ccc(CN(C)C(=O)c2cc(-c3ccc(C)cc3C)nc3ccccc23)c(OC)c1OC,-15,0,-3,15,-9,-6.0,3834
CCC(=O)N1CCc2cc(Br)cc(S(=O)(=O)N3CCC(C(=O)NC(C)(C)C)CC3)c21,-2,-1,-6,9,2,7.9,4680
c1ccc(-c2cc(-c3ccncc3)nc3ccc4ccccc4c23)cc1,-4,4,-4,-14,-11,12,2727
COc1cc(C(=S)N2CCC(Cc3ccccc3)CC2)ccc1OCC(N)=O,-34,-3,8,14,-1,2.9,3795
Cc1c2cn[nH]c(=O)c2c(C)n1-c1ccccc1,-19,8,8,13,7,6.2,3509
COC(=O)c1ccc(N2CCC(C)CC2)c(N)c1,-55,2,1,17,-4,-0.4,22414*
CSCC[C@H](NC(=O)C1CCC(CNC(=O)[C@@H]2CCCN2C(=O)OC(C)(C)C)CC1)C(=O)O (some centres not stated),13,4,-8,5,-1,1.0,3294
Cc1cccc2cc(CN(Cc3cccs3)Cc3nnnn3Cc3ccccc3)c(=O)[nH]c12,-1,6,2,-3,1,1.3,10131
Cc1ccc(Cl)cc1N1CCN(C(=O)Cn2ccc3ccccc3c2=O)CC1,-20,.,.,-1,1,-9.1,2905
O=S(=O)(NC(=S)c1ccccc1)c1ccccc1,-22,7,0,7,-6,1.7,6222
COc1ccc(C=NNC(=O)CNC(=O)/C=C/c2ccc(OC)cc2)cc1,.,-12,-11,-5,.,-3.6,.
O=S(=O)(NCC(c1cccnc1)N1CCOCC1)c1ccccc1 (configuration not stated),-26,-1,11,11,-6,-1.9,2205
COc1ccccc1C1(CC(=O)N2CCOCC2)CCOC(C(C)C)C1 (configuration not stated),-7,.,.,-3,-15,3.0,3219
NCCOc1cnn(-c2ccccc2Cl)c(=O)c1Cl,-9,8,4,6,11,1.7,2049
CCOC1OC(C(=O)N2CCN(C)CC2)=CC(C2CCCCC2)C1CCCO (configuration not stated),.,-3,-5,-8,.,3.9,.
Brc1cccc(Cn2c(-c3cncs3)nc3ccccc32)c1,-27,5,20,5,0,-1.9,22203*
COc1ccc(C2CC(c3ccccc3O)=NN2c2ccccc2)cc1 (configuration not stated),-7,12,-4,47,-5,-11,4390
COc1c(N2CCN(C(=S)NCc3ccccc3)C(C)C2)c(F)cc2c(=O)c(C(=O)O)cn(C3CC3)c12 (configuration not stated),7,.,.,100*,-2,100*,2623
O=C(CCCN=C1NS(=O)(=O)c2ccccc21)OCc1cc([N+](=O)[O-])cc2c1OCOC2,-22,4,-6,3,9,2.8,?
CC(C)c1c(C(=O)N/N=C/c2ccco2)nnn1-c1nonc1N,3,.,.,.,8,.,4698
CC/C(=N\Nc1ccnc2cc(Cl)ccc12)c1ccc(O)cc1,-20,.,.,.,2,.,3982
COc1ccccc1N(CC(=O)NC(C)(C)C)C(=O)Cn1nnc(-c2ccc(C)o2)n1,-9,4,3,3,4,-0.7,9620
CC1CN(C(C)CO)C(=O)Cc2cc(NS(=O)(=O)c3cccs3)ccc2OC1CN(C)S(=O)(=O)c1cn(C)cn1 (configuration not stated),.,11,8,5,.,1.7,.
CC1CN(c2ccc(S(=O)(=O)N3CCOCC3)cn2)CC(C)O1 (configuration not stated),-9,4,4,4,-10,3.8,2401
COc1ccc2cc3cc(C(=O)NCC4CCCO4)oc3nc2c1 (configuration not stated),-17,.,.,5,-5,-2.6,4001
Cc1nn(C)c(C)c1S(=O)(=O)NCc1cccs1,0,.,.,2,4,3.8,3127
CCOc1cc(N2CCOCC2)c(OCC)cc1NC(=O)c1ccccc1C,5,2,9,3,3,2.5,4133
CCOC(=O)c1c(C)[nH]c(C(=O)COC(=O)CCC2CCCC2)c1C,-13,-3,-4,4,-1,6.3,15842
CC(NS(=O)(=O)c1cccc(Cl)c1)C(=O)N(C)C1CCN(C)CC1 (configuration not stated),-24,.,.,.,-3,.,5879
COc1ccc(S(=O)(=O)N2CCN(Cc3cccc(Cl)c3)CC2)cc1,7,0,0,7,0,5.5,2681

# Remaining list, next part:
SMILES,PrP 5UTR inh,Mtb hypoxia inh,Mtb hypoxia inh growth,ugtP null kill,BJeLR viability,RN4220 kill,Autofluor counter
COc1ccc(CNC(=O)C(=O)NCC2CCCN2S(=O)(=O)c2cccs2)cc1 (configuration not stated),-13,-3,-6,6,5,2.6,7362
Cc1cc(C)n(-c2nc3c(c(=O)[nH]c(=O)n3C)n2CC(O)COc2ccccc2C)n1 (configuration not stated),-23,1,3,3,.,6.3,?
C=CCN1C(=O)/C(=C/c2ccc(OC)cc2)SC1=Nc1nccs1,.,12,5,3,.,5.9,.
Cc1ccc(S(=O)(=O)N2CCC(=O)N(CCOCc3ccccc3C)CC2)cc1,-11,14,6,-9,7,-9.3,4390
O=C1c2oc3ccc(F)cc3c(=O)c2C(c2ccc(F)cc2)N1CCCN1CCOCC1 (configuration not stated),-28,7,8,7,-6,2.0,4908
CC(=O)N1C(Cc2ccccc2)C=C[C@]1(C)C(=O)NCc1ccccn1 (some centres not stated),.,9,6,-5,.,3.9,.
CCN(CC(=O)Nc1c(F)cccc1F)C(=O)c1cc(C)nc2ccccc12,-7,-7,-7,0,2,-5.0,5668
CCCCn1c(N)c(N(CC(C)C)C(=O)c2ccc(Cl)c(S(=O)(=O)N3CCCC3)c2)c(=O)[nH]c1=O,-10,-1,-17,6,2,3.1,?

# 4 of these compounds, reformatted.
SMILES: CC(=O)N1C(Cc2ccccc2)C=C[C@]1(C)C(=O)NCc1ccccn1 (some centres not stated)
  PrP 5UTR inh: . | Mtb hypoxia inh: 9 | Mtb hypoxia inh growth: 6 | ugtP null kill: -5 | BJeLR viability: . | RN4220 kill: 3.9 | Autofluor counter: .

SMILES: Cc1cc(C)n(-c2nc3c(c(=O)[nH]c(=O)n3C)n2CC(O)COc2ccccc2C)n1 (configuration not stated)
  PrP 5UTR inh: -23 | Mtb hypoxia inh: 1 | Mtb hypoxia inh growth: 3 | ugtP null kill: 3 | BJeLR viability: . | RN4220 kill: 6.3 | Autofluor counter: ?

SMILES: C=CCN1C(=O)/C(=C/c2ccc(OC)cc2)SC1=Nc1nccs1
  PrP 5UTR inh: . | Mtb hypoxia inh: 12 | Mtb hypoxia inh growth: 5 | ugtP null kill: 3 | BJeLR viability: . | RN4220 kill: 5.9 | Autofluor counter: .

SMILES: O=C1c2oc3ccc(F)cc3c(=O)c2C(c2ccc(F)cc2)N1CCCN1CCOCC1 (configuration not stated)
  PrP 5UTR inh: -28 | Mtb hypoxia inh: 7 | Mtb hypoxia inh growth: 8 | ugtP null kill: 7 | BJeLR viability: -6 | RN4220 kill: 2.0 | Autofluor counter: 4908

# Further results follow.
SMILES,PrP 5UTR inh,Mtb hypoxia inh,Mtb hypoxia inh growth,ugtP null kill,BJeLR viability,RN4220 kill,Autofluor counter
COc1ccc(Oc2ccc(-c3ccn[nH]3)cc2)cc1,-33,4,7,4,6,4.6,4204
COc1ccc(Cc2c3cc(OC)c(OC)cc3cc[n+]2C)cc1OC,-16,.,.,10,10,4.2,5463
O=C(Nc1ccccn1)c1cc(-c2cccc(Cl)c2)nc2ccccc12,5,6,2,14,-1,-8.4,3411
Cn1nnnc1SCC(=O)N1CCN(S(=O)(=O)c2ccc(Cl)cc2)CC1,-4,8,0,3,4,4.7,2391
Cc1ccc(S(=O)(=O)NCCC(=O)OCC(=O)N2CCCC2=O)cc1C,2,-5,0,8,-7,3.8,4871
Cc1ccc(NC(=O)CCCNC(=O)c2ccc(Cl)cc2)c(Br)c1,-6,8,1,3,-1,2.6,3743
COC(=O)C1=C(c2ccc(OC)c(OC)c2)CC2CCC1N2C(=O)NC1CC1 (configuration not stated),.,-4,0,-7,.,-0.9,.
Cc1cccc(OCC(O)CN2C(C)(C)CC(O)CC2(C)C)c1C (configuration not stated),-24,0,4,-10,0,3.2,5322
CCN(CC)S(=O)(=O)c1ccc(N(C)CCc2ccc(OC)c(OC)c2)nc1,4,18,4,-69,-28,6.4,4537
CC(=O)Nc1ccc(C(=O)COC(=O)c2c(C)noc2C)c(F)c1,-25,4,7,2,.,0.4,5578
Cc1ccc(S(=O)(=O)N2CC(O)C[C@H]2C(=O)OCC(=O)Nc2ccc(N3CCCCC3)cc2)cc1C (some centres not stated),-36,6,-1,-4,-5,0.9,4157
O=C(Nc1ccc(F)cc1)N1CCC(c2nc3c(nnn3Cc3ccccc3Cl)c(=O)[nH]2)CC1,-69,2,-1,27,-1,-8.4,2589
COc1ccc([N+](=O)[O-])cc1C=NNC(=O)CNC(=O)c1cccc(F)c1,.,6,0,0,.,51,.
C=CCN1C(=O)c2cccc3c(N4CCCCC4)ccc(c23)C1=O,-5,-1,10,7,6,4.2,6017
CC(C)(CO)NC(=O)C(Cc1ccccc1)N1C(=O)c2ccccc2C1=O (configuration not stated),-23,11,-6,10,0,5.8,3759
N#Cc1cnn2ccc(-c3ccc4c(c3)CCC4)nc12,6,3,14,4,-2,2.0,3371
CCCCNc1c(-c2ccc(OC)c(SC(C)CC)c2)nc2ccc(Cl)cn12 (configuration not stated),-11,4,14,-27,.,2.6,4053

# Random draw from the library; overall some 4% were active at least once.
